Screening results: PubChem BioAssay, Broad Institute
ALR H2O2 inh – inhibitors of human sulfhydryl oxidase ALR; P55789; purified ALR, DTT oxidation, H2O2 HRP-luminol luminescence; inhibition, % (no concentration beside the values); actives 3.8% (n = 290,000);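 active means mean and each replicate at 75% or more; inconclusive means only one of the two met; inactive means neither met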;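 further: stock transfer was 7.5 nL into about 7.5 µL; 0% = neutral wells and 100% = wells with inactivated enzyme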
Target sequence (P55789 whole entry, looked up): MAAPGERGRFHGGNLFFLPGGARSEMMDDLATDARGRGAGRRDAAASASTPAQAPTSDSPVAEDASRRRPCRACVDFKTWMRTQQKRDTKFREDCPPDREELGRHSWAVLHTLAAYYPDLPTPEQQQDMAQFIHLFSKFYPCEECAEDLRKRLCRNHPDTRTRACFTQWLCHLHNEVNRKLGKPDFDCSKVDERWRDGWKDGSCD
Beta apoptosis – beta cell apoptosis inhibition; INS-1E cytokine-induced death, ATP luminescence, 48 h; percent of positive-control rescue, neutral wells zero; protection from apoptosis, % (test concentration not listed); actives 0.8% (n = 300,000);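 active means all replicates at 75% or more, or half of them and the mean; inconclusive means half reach 75% but not the mean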;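 further: 0% = cytokine-treated negative control wells and 100% = positive control rescue; higher means more ATP so stronger rescue from cytokine killing; wells of about 40 µL received 100 nL stock; the first replicate is given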
Calb FLC – affects C. albicans growth with fluconazole; C. albicans CaCi-2 (fluconazole-resistant clinical isolate) + fluconazole, Alamar Blue growth, 48 h; growth inhibition, % (no concentration beside the values); actives 0.57% (n = 300,000); AID 1979;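 active means most replicates above 75%; inconclusive means exactly half above 75%; inactive means most below 75%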;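 further: all wells also contain fluconazole at 8 µg/ml as a sub-toxic cotreatment; 0% = median of DMSO wells and 100% = median of geldanamycin control wells; wells of about 8 µL received 7.5 nL stock; the first replicate is given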
T cruzi inh – T. cruzi replication inhibition. T. cruzi beta-gal in NIH3T3, luminescence, 90 h. AID 1885. actives 1.4% (n = 300,000). inhibition, % (test concentration not listed);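 active means mean inhibition across valid replicates above about 55%, limit read from the data; inconclusive means mean below that limit but half or more replicates reach it; inactive means mean below it, under half of replicates reach it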;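 further: signal also drops with host cell toxicity which is not excluded here; 0% = plate median of DMSO wells and 100% = zero luminescence signal; higher percent means less beta-gal luminescence so fewer parasites; stock transfer was 50 nL into about 50 µL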
rRNA inh HTS – inhibitors of bacterial rRNA selective over humanized ribosomes. actives 1.6% (n = 350,000). GFP signal change (wild-type ribosome), % (concentration not given with the values). E. coli WT GFP vs humanized-ribosome RFP mutants, fluorescence, 24 h; hits give low values; DMSO median 0, no signal -100;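 active means significant combined selectivity score with lowered wild-type GFP, culture density cut under 30%, mutant RFP and density less affected; inactive means any of these conditions unmet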; further: one replicate is shown; some compounds called inactive have numbers as strong as hits
MLL AF4-AF9 inh – inhibitors of human MLL-AF4/AF9 interaction | P42568 | AlphaScreen, biotin-AF4 peptide binding to FLAG-AF9 | inhibition, % at 10 µM | actives 0.47% (n = 350,000) | AID 651704;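 active means every replicate reaching a set inhibition limit, whatever the replicate mean, cut at about 25% in these data; inconclusive means mean inhibition reaches that limit but some replicates miss it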;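 further: 0% = plate neutral control median and 100% = total signal loss; the record names both 10 and 1 µM as test concentration; the first replicate is given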
Target sequence (P42568 whole entry, looked up): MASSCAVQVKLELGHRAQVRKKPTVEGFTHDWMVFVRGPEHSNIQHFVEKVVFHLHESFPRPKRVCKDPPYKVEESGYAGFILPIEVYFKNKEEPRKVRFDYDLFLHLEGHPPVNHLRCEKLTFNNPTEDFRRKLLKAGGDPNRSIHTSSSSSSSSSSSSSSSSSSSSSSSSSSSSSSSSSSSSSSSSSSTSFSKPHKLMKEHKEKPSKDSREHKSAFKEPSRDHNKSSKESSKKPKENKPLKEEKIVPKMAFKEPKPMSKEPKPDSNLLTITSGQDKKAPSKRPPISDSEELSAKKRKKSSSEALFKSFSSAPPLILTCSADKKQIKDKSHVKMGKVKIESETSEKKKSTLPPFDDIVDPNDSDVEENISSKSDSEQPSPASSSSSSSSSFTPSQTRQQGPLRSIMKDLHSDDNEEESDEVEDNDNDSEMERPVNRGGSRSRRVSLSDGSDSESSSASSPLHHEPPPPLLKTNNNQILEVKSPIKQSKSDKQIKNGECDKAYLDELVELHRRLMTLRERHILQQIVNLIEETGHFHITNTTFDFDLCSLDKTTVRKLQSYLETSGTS
FGF22 binding – binders of recombinant human FGF22 by thermal shift | SYPRO orange fluorescence; percent of sucrose octasulfate shift, DMSO zero | Q9HCT0 | AID 651658 | actives 1.5% (n = 340,000) | calls only at 9.99 µM;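 active means melting point raised past a set limit in the mean and every replicate; inconclusive means no clear call; three in four hits are not shown here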
Target sequence (Q9HCT0 whole entry, looked up): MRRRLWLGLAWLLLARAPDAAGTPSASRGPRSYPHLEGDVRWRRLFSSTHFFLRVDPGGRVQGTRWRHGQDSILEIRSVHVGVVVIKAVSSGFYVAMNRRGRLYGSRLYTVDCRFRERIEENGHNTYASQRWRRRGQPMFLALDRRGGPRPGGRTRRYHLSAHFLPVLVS
RanGTP-Imp inh – inhibitors of RanGTP-importin-beta interaction, primary screen, biochemical, FRET, CFP-Ran, YFP-importin-beta, homogeneous; actives 1.1% (n = 300,000); inhibition, % (test concentration not listed); cell-free CFP-Ran/YFP-importin-beta FRET ratio; AID 2216;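 active means most replicates above 15%; inconclusive means exactly half above 15%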;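 further: 0% = DMSO wells and 100% = Ran loaded with GDP instead of GTP; wells of about 40 µL received 100 nL stock; the first replicate is given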
rRNA inh HTS OD600 – recorded beside rRNA inh HTS, whose call it bears; OD600 change, %; measured here: OD600 growth;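 optical density of the mix in the first replicate; 0 = DMSO median and -100 = no signal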
rRNA inh HTS RFP – further read-out of rRNA inh HTS, marked with its call; RFP signal change, %; measured here: RFP humanized mutant strains;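 first replicate; 0 = DMSO median and -100 = no signal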
* hit, by the source's call; i = inactive; ? = inconclusive; . = no result given; + = active, no number; & = joins results of further samples. Only part of the results is shown. The share of hits here may be higher or lower than overall.

SMILES	ALR H2O2 inh	Beta apoptosis	Calb FLC	T cruzi inh	rRNA inh HTS	rRNA inh HTS OD600	rRNA inh HTS RFP	MLL AF4-AF9 inh	FGF22 binding	RanGTP-Imp inh
COC(=O)c1cc(C(=O)NC(C)C2CC3CCC2C3)cc([N+](=O)[O-])c1 (centres undefined)	-8	.	9	28	-10	-4	1.2	6.4	i	1.7
O=C(COc1ccc(Br)cc1)NCC1COc2ccccc2O1 (centres undefined)	-1	5	.	.	-13	-50	7.5	-0.2	i	.
CC(OC(=O)CCC1CCCCC1)C(=O)Nc1ccc(S(N)(=O)=O)cc1 (centres undefined)	-32	-4	1	-5	-4	-7	0.8	0.5	i	-2.5
COC(=O)c1ccc(N=CC2=C(O)CC(c3ccccc3)CC2=O)cc1 (centres undefined)	47	-11	9	.	13	-2	1.7	-0.4	i	-0.2
S=C(NC1CCCCC1)N1CCN(Cc2ccccc2Cl)CC1	-6	2	-22	9	-21	-30	3.4	0.0	i	0.3
COc1ccc(-c2csc(NC(=O)CSc3nnnn3C)n2)c(OC)c1	.	9	24	-2	-2	3	-2.2	0.9	i	3.1
CCOC(=O)C1CCN(C(=O)COc2ccc(N(C)S(=O)(=O)c3ccc(OCC)cc3)cc2)CC1	.	-3	-1	-12	2	-5	-2.1	2.9	i	-0.5
CSCCC1NC(=O)N(CC(=O)N2CCc3ccccc3C2)C1=O (centres undefined)	.	-6	.	.	13	10	0.3	1.3	i	.
CCc1nc2ccc(C(=O)N3CCN(c4cccc(C)c4C)CC3)cc2nc1CC	-15	-5	-12	9	-5	-13	4.9	-14	i	0.2
COc1ccc(CNC(=O)C(=O)NCC2OCCN2S(=O)(=O)c2ccccc2)cc1 (centres undefined)	.	-1	-20	12	6	8	-0.7	1.2	i	-2.6
COc1ccc(S(=O)(=O)N2CCOC23CCN(S(=O)(=O)c2c(C)cc(C)cc2C)CC3)cc1	-3	3	-3	29	-1	-14	-0.2	0.6	.	-0.1
CCOC(=O)c1c(NC(=O)COC(=O)Cc2ccccc2[N+](=O)[O-])sc(C(=O)N(C)C)c1C	3	-3	-5	16	5	3	-0.5	1.5	i	-0.7
O=C1c2ccccc2C(Nc2ccc(Cl)cc2)N1CCN1CCOCC1 (centres undefined)	13	-7	-5	-16	1	-9	-4.5	-7.8	i	0.6
Cc1ccc(N2CC(C(=O)Nc3cc(C)on3)CC2=O)cc1 (centres undefined)	-6	-7	4	-18	.	.	.	.	.	-0.4
Cc1ccccc1N1CC(C(=O)Nc2nnc(SCCC3OCCO3)s2)CC1=O (centres undefined)	-13	6	-7	-8	7	7	0.4	-3.8	i	2.5
O=C1C2C(c3ccccc3)C=CC(c3ccccc3)C2C(=O)N1c1ccncc1 (centres undefined)	50	3	-2	4	.	.	.	.	.	8.8
COc1cccc(CN(C(=O)Cn2nnc(-c3ccccc3F)n2)C(C(=O)NC(C)(C)C)c2ccncc2)c1 (centres undefined)	-4	7	-2	8	-4	-5	10	2.1	i	1.5
O=c1c(C=NCC2CCCO2)c(-c2ccccc2)[nH]n1-c1ccc([N+](=O)[O-])cc1 (centres undefined)	.	11	1	34	5	-4	-4.5	-25	i	-5.1
Cc1nc2ncnn2c(N2CCN(c3cccc(C(F)(F)F)c3)CC2)c1C	1	62	12	-9	.	.	.	.	.	-3.1
COc1cc([N+](=O)[O-])cc2sc(NC(=O)c3c(F)cccc3F)nc12	-2	1	13	-4	22	19	1.8	-0.2	i	8.6
COC(=O)CC1SC(=O)NC1=O (centres undefined)	5	-6	-5	-3	.	.	.	.	.	1.8
CSc1ccc(C(=O)C2CCCN(C(=O)CCc3cnn(C)c3)C2)cc1 (centres undefined)	-2	3	-2	-7	-1	-6	0.0	1.7	i	-5.0
CC(=O)N1N=C(c2ccc3ccccc3c2)OC1(C)C	-1	3	?	-14	.	.	.	.	.	-2.1
CN(Cc1ccccc1)C(=O)COC(=O)C1CCN(S(=O)(=O)c2ccc(Cl)c(C(F)(F)F)c2)CC1	-22	-1	11	3	1	-2	-0.3	-18	i	0.1
COc1ccc(S(=O)(=O)N2CCOCC2)c(C)c1C	.	-8	-6	1	3	-3	-3.0	2.3	i	2.6
CC(C)OCC(O)CCc1n[nH]c(=S)n1-c1ccccc1 (centres undefined)	88*	-6	-4	10	.	.	.	.	.	-1.0
COc1cc(C(=O)O)cc(NC(=O)c2cccs2)c1OC	.	1	7	3	.	.	.	.	.	7.8
COC(=O)c1ccc2c(=O)n(Cc3ccc(C(=O)NCCCN4CCOCC4)cc3)c(=S)[nH]c2c1	-2	-2	-6	-6	3	-3	-3.7	0.1	i	-1.9
CN=c1sc2ccccc2n1CC(O)c1ccccc1 (centres undefined)	6	-5	-1	15	6	-2	-2.2	0.2	i	-0.4
O=C(N/N=C/c1cccc(O)c1)c1cc(-c2ccccc2)nc2ccccc12	-6	.	14	-1	-6	-15	-3.2	8.0	i	-2.1
Clc1ccccc1Cn1nnc(-c2cccs2)n1	2	3	1	13	.	.	.	.	.	0.9
CCc1nnc(NC(=O)CSc2nnc(C)n2Cc2ccccc2)s1	-5	-5	0	-1	3	5	-1.2	4.0	i	2.6
CCOc1ccc(NS(=O)(=O)c2ccc(NS(=O)(=O)c3cccs3)cc2)cc1	-3	1	7	-17	-28	-43	-16	-3.9	i	-2.2
Fc1ccc(/C=N/n2cnn(Cc3ccccc3Cl)c2=S)cc1	-9	-2	1	0	-15	-6	-0.5	1.3	i	-1.0
Cc1ccc(Oc2ccc3c(c2)C(=O)N(c2cccc4cccnc24)C3=O)cc1	-7	4	65	-7	.	.	.	.	.	4.7
CN(C)CCN(Cc1ccco1)C(=O)c1oc2ccccc2c1NC(=O)COc1ccccc1	-1	6	-3	44	-25	-25	-3.6	16	i	-0.4
O=C1CC(c2ccccc2)CC(=O)N1c1ccc(C(F)(F)F)cc1	5	-7	.	.	9	15	0.4	-4.0	i	.
CCN(CC(=O)Nc1ccccc1OC)C(=O)CSCC(=O)Nc1ccc(OC)cc1	-5	5	-2	-3	3	2	-1.2	11	i	-1.6
CNC(=O)CSc1nc2cc(S(=O)(=O)Nc3ccc(OC)cc3)ccc2o1	13	2	5	-15	0	-5	3.7	-0.3	i	-3.4
COc1ccc(OC)c(S(=O)(=O)NC(N)=NCCc2ccccc2OC)c1	2	2	-1	-14	.	.	.	.	.	3.1

Profiles, quoted from the list.
Profile of CNC(=O)CSc1nc2cc(S(=O)(=O)Nc3ccc(OC)cc3)ccc2o1 → ALR H2O2 inh = 13; Beta apoptosis = 2; Calb FLC = 5; T cruzi inh = -15; rRNA inh HTS = 0; rRNA inh HTS OD600 = -5; rRNA inh HTS RFP = 3.7; MLL AF4-AF9 inh = -0.3; FGF22 binding = i; RanGTP-Imp inh = -3.4
Profile of O=C1C2C(c3ccccc3)C=CC(c3ccccc3)C2C(=O)N1c1ccncc1 (centres undefined) → ALR H2O2 inh = 50; Beta apoptosis = 3; Calb FLC = -2; T cruzi inh = 4; rRNA inh HTS = .; rRNA inh HTS OD600 = .; rRNA inh HTS RFP = .; MLL AF4-AF9 inh = .; FGF22 binding = .; RanGTP-Imp inh = 8.8

Additional entries:
SMILES	ALR H2O2 inh	Beta apoptosis	Calb FLC	T cruzi inh	rRNA inh HTS	rRNA inh HTS OD600	rRNA inh HTS RFP	MLL AF4-AF9 inh	FGF22 binding	RanGTP-Imp inh
O=C(CN1C(=O)NC2(CCCC2)C1=O)N1CCN(S(=O)(=O)c2cc(Cl)ccc2Cl)CC1	-4	3	.	.	-3	-5	-0.2	-5.5	i	.
CSC1=NCCN1C(=O)c1ccc(S(=O)(=O)N2CCOCC2)cc1	-2	2	-6	3	3	6	-0.9	-2.8	i	1.5
Cc1ccccc1Oc1ccc(NC(=O)C2CC=CCC2C(=O)O)cc1 (centres undefined)	7	-2	14	-21	-11	-5	-6.4	-26	i	-2.6
CCc1nc2ccccc2n1CCC(=O)O	-1	-9	14	0	8	9	-2.3	-6.8	i	3.2
COc1ccc(N2CCCCn3c2nc2c3c(=O)[nH]c(=O)n2C)cc1	11	0	2	-11	.	.	.	.	.	-2.8
C#CC1(O)CC(C)NCC1(C)CCC#N (centres undefined)	0	3	-4	-19	.	.	.	.	.	8.7
Cc1c(N2C(=O)CSC2c2ccccc2)c(=O)n(-c2ccccc2)n1C (centres undefined)	-5	-8	-24	-6	14	2	1.9	0.2&0.5	i	1.1
CCC1CCCCN1CCCNC(=O)c1cn(CC)c2ccc(S(=O)(=O)N3CCc4ccccc4C3)cc2c1=O (centres undefined)	-9	-4	2	29	-2	-6	0.9	5.0	i	1.1
O=C(COC(=O)Cc1n[nH]c(=O)c2ccccc12)Nc1ccc(Cl)cn1	-3	6	.	.	18	15	2.3	-2.9	i	.
CCN(CC)S(=O)(=O)c1ccc(N2CCCC2)c(NC(=O)CN2C(=O)NC3(CCCC3)C2=O)c1	-9	-5	.	-1	8	6	-2.0	-11	i	-0.1
O=C(Cc1cccs1)Nc1ccc(C(=O)O)cc1	-10	0	-11	-12	.	.	.	.	.	-3.1
O=C(NC1(C(F)(F)F)NC(=O)N(C2CCCCC2)C1=O)c1cccs1 (centres undefined)	21	.	9	-8	.	.	.	.	.	7.2
CCOc1ccc(NC(=O)CCS(=O)(=O)c2cccc3nsnc23)cc1	-11	4	-11	5	.	.	.	.	.	-4.0
CCc1ccc(C2C(C#N)=C(N)OC3=C2C(=O)CCC3)s1 (centres undefined)	-1	-5	0	-8	12	7	-1.1	-0.2	i	.
O=C(Nc1ccc(O)cc1)c1ccc(NC(=O)c2cccs2)cc1	-2	-5	4	-19	0	5	0.2	-6.1	i	4.7
CCOc1ccc(-c2nnc3ccc(SCC(=O)Nc4nc5ccccc5s4)nn23)cc1	-5	7	-2	19	.	.	.	-1.2	+	?
Cc1ccnc(NC(=O)Cc2ccc(F)cc2)n1	-1	-1	4	-4	16	10	-2.0	-3.0	i	0.1
Cc1c(N=Cc2c(O)n(C3CCCCC3)c(=O)[nH]c2=O)c(=O)n(-c2ccccc2)n1C	-12	-3	-10	-13	.	.	.	.	.	0.3
COC(=O)COc1cccc2c(=O)n(CC(=O)Nc3ccc4c(c3)OCCO4)ccc12	.	-7	-1	-23	3	5	1.9	1.6	i	-4.3
FC(F)(F)c1cnc(COc2ccc(Cl)cc2Cl)c(Cl)c1	1	.	-1	-1	5	0	-3.0	-11	i	-1.1
O=C(c1ccc(Cl)c([N+](=O)[O-])c1)N1CCN(C(=O)c2ccco2)CC1	2	-2	8	4	16	19	4.1	-0.8	i	-1.6
O=C(O)COc1ccc(Br)cc1/C=N/O	-4	-3	1	-12	.	.	.	.	.	1.8
O=C(OCc1nc2scc(-c3ccccc3)c2c(=O)[nH]1)c1cccc([N+](=O)[O-])c1	-8	2	-3	7	.	.	.	.	.	-4.6
O=C(CC(Cc1ccccc1)c1ccco1)NC1CCCCC1 (centres undefined)	-5	-3	-50	-9	.	.	.	.	.	-5.4
COc1cc(C2C(C(C)=O)=C(O)C(=O)N2CCc2ccc(OC)c(OC)c2)ccc1O (centres undefined)	14	0	3	-18	.	.	.	.	.	3.3
COc1ccc(/C=C(\C#N)C(=O)OCC(=O)NC(=O)NCCC(C)C)cc1	-22	-1	-2	-4	2	10	2.2	-16	i	-0.6
